# Beta2AR agonist = human beta-2 adrenergic receptor agonism by FAP; Am2.2-beta2AR cells, FAP receptor internalization, flow cytometry; reference of the scale not given here; P07550; hit rate 0.43% among 340,000; AID 504454; response, % (concentration not given with the values);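 active means response above a set limit, near 3 SD of response in nonfluorescent compounds, cut at about 42% in these data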;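 further: stock transfer was 100 nL into about 11 µL; a reference agonist was the positive control; negative values mostly stem from fluorescent compounds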
# Target sequence (P07550 whole entry, looked up): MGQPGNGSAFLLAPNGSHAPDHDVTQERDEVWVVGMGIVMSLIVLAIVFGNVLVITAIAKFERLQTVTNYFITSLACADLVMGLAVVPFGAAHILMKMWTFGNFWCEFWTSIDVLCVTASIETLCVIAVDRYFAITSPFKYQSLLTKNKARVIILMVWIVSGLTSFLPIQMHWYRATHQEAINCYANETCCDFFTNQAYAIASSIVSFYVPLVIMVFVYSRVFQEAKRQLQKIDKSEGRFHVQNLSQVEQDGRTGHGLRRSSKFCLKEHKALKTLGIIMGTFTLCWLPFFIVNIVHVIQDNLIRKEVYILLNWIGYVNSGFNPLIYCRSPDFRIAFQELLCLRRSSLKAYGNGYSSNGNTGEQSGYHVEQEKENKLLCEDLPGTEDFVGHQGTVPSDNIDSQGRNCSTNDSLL
# LANA-H2B inh = blocks KSHV LANA binding to histone H2A/H2B; cell-free LANA-H2A/H2B peptide, fluorescence polarization; inhibition, % (concentration not given with the values); Q9QR71; hit rate 0.6% among 320,000; in the data active means inhibition mostly above about 10%, no sharp cut-off; inactive means mostly below about 6.7%;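 further: stock transfer was 7.5 nL into about 10 µL; 0% = median of vehicle wells and 100% = median of positive control wells; one replicate is shown; the record names a cut of 25% in any replicate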
# Calb FLC = affects C. albicans growth with fluconazole | growth inhibition, % (test concentration not listed) | hit rate 0.57% among 300,000 | C. albicans CaCi-2 (fluconazole-resistant clinical isolate) + fluconazole, Alamar Blue growth, 48 h;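 active means most replicates above 75%; inconclusive means exactly half above 75%; inactive means most below 75%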;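 further: all wells also contain fluconazole at 8 µg/ml as a sub-toxic cotreatment; 0% = median of DMSO wells and 100% = median of geldanamycin control wells; wells of about 8 µL received 7.5 nL stock; the first replicate is given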
# A1 inh = inhibitors of the anti-apoptotic protein A1, read as caspase activation; MEF A1-2A-BIM cells, Caspase-Glo 3/7 luminescence, 3 h; percent of clofoctol response, vehicle zero; caspase activation, % (test concentration not listed); hit rate 0.066% among 330,000;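 active means over half of replicate activation scores above 10%, or exactly half above 10 with the replicate mean above 10; inconclusive means replicate mean below 10 yet half the replicates above 10; inactive means over half of replicates below 10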;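 further: wells of about 30 µL received 50 nL stock; many hits fall short of the cut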
# ALR H2O2 inh = inhibitors of human sulfhydryl oxidase ALR; AID 485317; purified ALR, DTT oxidation, H2O2 HRP-luminol luminescence; inhibition, % (no concentration beside the values); hit rate 3.8% among 290,000; P55789;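 active means mean and each replicate at 75% or more; inconclusive means only one of the two met; inactive means neither met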;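 further: stock transfer was 7.5 nL into about 7.5 µL; 0% = neutral wells and 100% = wells with inactivated enzyme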
# Target sequence (P55789 whole entry, looked up): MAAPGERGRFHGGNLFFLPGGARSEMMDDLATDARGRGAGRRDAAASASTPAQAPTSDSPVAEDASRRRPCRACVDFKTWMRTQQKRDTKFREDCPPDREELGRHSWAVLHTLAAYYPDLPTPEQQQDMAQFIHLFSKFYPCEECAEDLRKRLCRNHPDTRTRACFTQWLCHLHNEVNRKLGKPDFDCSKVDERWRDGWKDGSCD
# Beta apoptosis = beta cell apoptosis inhibition | INS-1E cytokine-induced death, ATP luminescence, 48 h; percent of positive-control rescue, neutral wells zero | protection from apoptosis, % (no concentration beside the values) | hit rate 0.8% among 300,000 | AID 435005;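 active means all replicates at 75% or more, or half of them and the mean; inconclusive means half reach 75% but not the mean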;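 further: 0% = cytokine-treated negative control wells and 100% = positive control rescue; higher means more ATP so stronger rescue from cytokine killing; wells of about 40 µL received 100 nL stock; the first replicate is given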
# T cruzi inh = blocks replication of Trypanosoma cruzi; AID 1885; T. cruzi beta-gal in NIH3T3, luminescence, 90 h; hit rate 1.4% among 300,000; inhibition, % (no concentration beside the values);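 active means mean inhibition across valid replicates above about 55%, limit read from the data; inconclusive means mean below that limit but half or more replicates reach it; inactive means mean below it, under half of replicates reach it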;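 further: signal also drops with host cell toxicity which is not excluded here; 0% = plate median of DMSO wells and 100% = zero luminescence signal; higher percent means less beta-gal luminescence so fewer parasites; stock transfer was 50 nL into about 50 µL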
# rRNA inh HTS = inhibitors of bacterial rRNA selective over humanized ribosomes | E. coli WT GFP vs humanized-ribosome RFP mutants, fluorescence, 24 h; stronger effect = lower value; DMSO median 0, no signal -100 | GFP signal change (wild-type ribosome), % (no concentration beside the values) | hit rate 1.6% among 350,000 | AID 720706;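 active means significant combined selectivity score with lowered wild-type GFP, culture density cut under 30%, mutant RFP and density less affected; inactive means any of these conditions unmet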; further: one replicate is shown; some compounds called inactive have numbers as strong as hits
# rRNA inh HTS OD600 = further read-out of rRNA inh HTS, marked with its call; OD600 change, %; measured here: OD600 growth;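 optical density of the mix in the first replicate; 0 = DMSO median and -100 = no signal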
# rRNA inh HTS RFP = recorded beside rRNA inh HTS, whose call it bears; RFP signal change, %; measured here: RFP humanized mutant strains;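 first replicate; 0 = DMSO median and -100 = no signal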
# The depositor's hits bear a star; ? = inconclusive; nt = not tested or not shown.
SMILES,Beta2AR agonist,LANA-H2B inh,Calb FLC,A1 inh,ALR H2O2 inh,Beta apoptosis,T cruzi inh,rRNA inh HTS,rRNA inh HTS OD600,rRNA inh HTS RFP
Cc1cc(C)n(-c2c(F)c(F)c(COC(=O)c3ccccc3)c(F)c2F)n1,-5.9,3.8,11.8,0.5,-9.4,3.7,-0.7,nt,nt,nt
Cc1ccc(-n2c(O)c(C=NC3CCS(=O)(=O)C3)c3ccccc3c2=O)cc1 (configuration not stated),-23.9,0.5,-17.3,0.9,-2.0,-12.7,-6.9,nt,nt,nt
Cc1ccc(-c2csc(NCCn3c(-c4ccncc4)nc4ccccc43)n2)cc1,20.4,-1.0,5.8,-0.2,66.5,-1.3,?,-20.8*,-15.4*,1.7*
CCn1cc(C(=O)NC2CC(C)(C)Cc3c2cnn3-c2cccc(F)c2)cn1 (configuration not stated),7.5,1.9,4.6,-0.2,1.9,1.6,-13.9,nt,nt,nt
CC(C)C(Nc1ccc(S(=O)(=O)N2CCOCC2)cc1[N+](=O)[O-])C(=O)O (configuration not stated),-0.3,-2.8,-3.3,0.2,-10.8,-4.2,0.9,13.3,2.6,3.0
CC(Nc1ccccc1N1CCCCC1)C(=O)N1CCc2ccccc21 (configuration not stated),-0.3,-1.2,?,0.6,29.3,3.0,23.7,-3.1,5.5,-0.6
Cc1cccc(NC2=C(Cl)C(=O)OC2OC(C)C)c1 (configuration not stated),-2.5,2.3,-10.5,0.5,-11.0,4.4,-14.3,4.8,1.3,-1.3
COc1cccc(-c2nc(NC(C)(C)C)c3ccccc3n2)c1O,-6.1,2.9,7.0,0.0,nt,6.3,50.3,nt,nt,nt
Cc1ccc(-c2cc(C(=O)Nc3ccc(S(=O)(=O)Nc4ncccn4)cc3)c3ccccc3n2)cc1,17.8,-3.0,-3.0,-0.2,0.6,0.2,-14.5,nt,nt,nt
CC(NC(=O)COc1ccccc1)C1COc2ccccc2O1 (configuration not stated),-8.0,-1.0,18.9,-0.8,-2.5,-5.8,-10.6,nt,nt,nt
CC(C)OC(=O)C(C)Oc1ccc(C(=O)NCCc2ccccc2)cc1 (configuration not stated),11.4,-1.7,32.9,0.5,-6.0,-1.0,5.4,nt,nt,nt
COc1ccc(C(=O)Nc2ccccc2C(=O)N/N=C/c2ccc(O)c(OC)c2)cc1,7.9,-3.8,2.1,-7.3,nt,41.1,-17.8,nt,nt,nt
CCOC(=O)C1CCCN(C(=O)c2cc3cc(OC)c(OC)cc3[nH]2)C1 (configuration not stated),2.9,4.2,1.4,-0.5,3.3,-3.7,-2.0,5.0,-1.8,-0.7
COc1ccccc1NC(=O)C(=O)/C=C(\O)c1ccccc1,5.9,1.1,15.4,-0.7,8.9,2.8,1.3,-6.5,-1.5,4.6
O=C(O)c1ccc(C2SCC(=O)N2Cc2ccccc2)cc1 (configuration not stated),-0.9,3.0,-9.4,0.5,-2.0,-1.9,-16.7,nt,nt,nt
CC1=NN(c2ccccc2)C(=O)C1C(=O)c1ccccc1 (configuration not stated),1.4,-0.9,0.3,-0.4,nt,6.2,-13.2,nt,nt,nt
CN(C(=O)CSc1ncnc2sccc12)c1c(N)n(Cc2ccccc2)c(=O)[nH]c1=O,-7.2,-5.1,-18.7,0.1,1.5,-3.1,-19.7,-0.1,11.3,0.7
C=CCC1NS(=O)(=O)O[C@H](CCCC)[C@@H]1O (some centres not stated),-10.4,1.7,-3.4,1.1,0.3,nt,-7.2,21.2,16.6,11.5
COc1ccc(Cl)cc1NC(=O)Nn1cnnc1,8.0,0.0,-7.1,0.7,-13.7,4.8,-4.0,nt,nt,nt
CCOC(=O)c1ccc(N2C(=O)CC(Nc3ccc(O)cc3)C2=O)cc1 (configuration not stated),4.6,-9.4,2.4,0.3,97.2*,-2.0,-1.9,4.1,6.0,12.1
COc1ccccc1/C=C/C=N/n1c(-c2n[nH]c3c2CCC3)n[nH]c1=S,-10.8,3.1,7.5,-0.2,4.6,-8.1,-11.1,-8.7,-1.9,-8.4
C/C(=N\NC(=O)CCCOc1ccc(Cl)cc1C)c1ccc(C)o1,3.9,1.5,3.3,-0.4,1.0,-6.8,-0.2,nt,nt,nt
O=C(Nc1ccc(-n2ccc(C(F)(F)F)n2)cc1)c1cccs1,10.5,5.5,1.1,-0.3,-18.0,3.2,-6.7,-2.1,-9.4,-4.9
O=C(NC1CCCC1)C(c1cccs1)N(Cc1ccco1)C(=O)Cn1nnc(-c2cccs2)n1 (configuration not stated),9.3,-8.1,3.6,-0.7,-4.3,-0.1,4.6,-1.2,-11.9,-1.7
Cc1cc([N+](=O)[O-])nn1CC(=O)NC(C)c1ccccc1 (configuration not stated),6.6,4.2,-11.0,0.8,-4.4,0.9,?,2.5,1.6,-3.6

# (more compounds)
SMILES,Beta2AR agonist,LANA-H2B inh,Calb FLC,A1 inh,ALR H2O2 inh,Beta apoptosis,T cruzi inh,rRNA inh HTS,rRNA inh HTS OD600,rRNA inh HTS RFP
CCOc1ccc2c(c1)c(N=O)c(O)n2C,3.9,-5.5,-5.8,-0.1,-3.5,4.2,-11.0,nt,nt,nt
COc1cc(CCCN2C(N)=NC[C@@H]2c2ccccc2)cc(OC)c1OC,-1.6,-0.7,-2.7,-0.5,-3.5,-6.0,-4.9,-5.9,-4.2,1.1
O=C(NCC1CCCO1)C1CC1(c1ccccc1)c1ccccc1 (configuration not stated),2.0,2.7,-2.2,0.5,-1.9,4.7,-16.4,4.7,-5.1,-1.8
COc1cccc(NC(=O)CN2CCN(S(=O)(=O)c3ccc(C(C)C)cc3)CC2)c1,-2.6,1.6,2.6,-0.1,2.0,-0.5,12.6,nt,nt,nt
COc1cccc(CC(Cc2nc3ccccc3[nH]2)c2nc3ccccc3[nH]2)c1 (configuration not stated),-14.2,1.3,5.4,-0.7,-7.5,13.2,8.5,-32.2,-43.4,-5.0
N#Cc1ccc(OC(=O)c2cnccn2)cc1,-1.3,0.3,2.8,0.2,-5.1,-0.1,1.3,4.0,2.2,-3.0
COc1ccccc1-c1c(C)oc2c(CN3CCN(C)CC3)c(O)ccc2c1=O,-0.3,1.4,-13.3,0.0,-0.8,1.9,-3.1,nt,nt,nt
CC(C#N)Sc1ccc(S(=O)(=O)N2CCCCC2)cn1 (configuration not stated),1.8,1.7,nt,-0.5,-2.0,-0.2,nt,3.2,6.6,-2.5
Cc1[nH]n(C(N)=S)c(=O)c1N=Nc1ccccc1C(F)(F)F,3.4,0.5,-0.9,-3.4,?,10.7,-12.3,-1.9,-5.5,1.0
CCN(CCN1CCCC1)C(=O)C1CCC(=O)N(CCCN2CCOCC2)C1 (configuration not stated),-4.9,3.0,30.0,0.0,1.8,2.4,-8.5,7.3,8.1,6.8
CS(=O)(=O)c1ccc(C(=O)NNC(=O)c2ccccc2-n2cccc2)cc1,1.8,0.8,nt,-0.7,nt,1.1,nt,9.2,11.4,5.2
Cc1ccc2nc(Cl)c(C3CC(c4ccco4)=NN3C(=O)CCCC(=O)O)cc2c1 (configuration not stated),-4.0,0.0,2.7,1.1,nt,-1.7,-5.9,6.3,5.5,-0.7
CCOC(=O)C12CNC(=O)C(C(=O)OCC)(CNC1=O)C2,-1.5,5.1,-5.7,0.5,-2.4,-6.6,1.7,nt,nt,nt
CCOC(=O)c1cnc(SCC(=O)Nc2ccc(NC(C)=O)c(OC)c2)nc1N,-7.4,-5.7,0.2,-0.3,-31.2,-3.1,-14.9,nt,nt,nt
CCN(C(=O)CSc1n[nH]c(N)n1)c1cccc2ccccc12,-15.8,1.0,nt,0.6,6.4,2.5,nt,-2.8,-7.6,1.0
COc1ccc(Cn2nnnc2C(c2cc(OC)ccc2OC)N2CCC(C(N)=O)CC2)cc1 (configuration not stated),1.8,0.2,-3.3,0.1,2.0,3.7,-23.4,nt,nt,nt
Cc1ccn2c(NC(=O)c3ccccc3)c(-c3cccs3)nc2c1,-1.2,-1.0,22.6,0.8,-4.3,-11.9,-7.5,nt,nt,nt
CCOc1ccc(/C=N/NC(=O)C(C)Sc2ccccn2)cc1OCC (configuration not stated),-22.5,-0.7,-2.6,-1.1,-8.9,3.7,-1.0,5.4,3.1,-0.4
CC(C)(C)SCCNC(=O)CN(c1ccccc1)S(=O)(=O)c1ccc(F)cc1,3.6,-0.6,-0.9,0.1,-0.2,-1.0,11.7,9.5,7.9,2.0
CC1CCc2c(sc(NC(=O)c3ccc(-c4ccccc4[N+](=O)[O-])o3)c2C#N)C1 (configuration not stated),-3.0,-8.9,1.6,-1.8,-19.1,23.4,19.6,-0.7,6.6,0.7
CC(=O)Nc1ccc(NC(=O)CCSCCc2ccccn2)cc1,-5.5,-1.6,7.5,0.2,3.5,-0.1,-7.0,2.4,-6.1,-1.4
CCCCC(=O)OCc1nc(N)nc(Nc2ccccc2C)n1,1.9,-2.3,-22.7,0.7,-29.0,-0.1,6.0,-9.9,-14.9,3.6
O=C(CC1c2ccccc2Oc2ccccc21)N1CCN(c2ccccn2)CC1,-13.2,0.8,54.5,0.0,-0.2,3.2,4.4,-42.0,-64.3,-11.9
O=C(NC1CCCCC1)C(c1ccc(F)cc1)N(C(=O)c1csnn1)C1CCCC1 (configuration not stated),-1.5,0.5,-4.7,0.2,-6.1,3.5,-21.5,-0.7,-4.2,-0.6
CCN(CC)CCCNC(=O)c1cc2nc3c(c(C(F)(F)F)n2n1)CCc1ccccc1-3,-3.6,-2.9,-9.2,-0.3,-7.0,nt,14.5,11.1,-5.8,0.8

# Among those listed so far, four have a Cl atom:
SMILES,Beta2AR agonist,LANA-H2B inh,Calb FLC,A1 inh,ALR H2O2 inh,Beta apoptosis,T cruzi inh,rRNA inh HTS,rRNA inh HTS OD600,rRNA inh HTS RFP
Cc1cccc(NC2=C(Cl)C(=O)OC2OC(C)C)c1 (configuration not stated),-2.5,2.3,-10.5,0.5,-11.0,4.4,-14.3,4.8,1.3,-1.3
COc1ccc(Cl)cc1NC(=O)Nn1cnnc1,8.0,0.0,-7.1,0.7,-13.7,4.8,-4.0,nt,nt,nt
C/C(=N\NC(=O)CCCOc1ccc(Cl)cc1C)c1ccc(C)o1,3.9,1.5,3.3,-0.4,1.0,-6.8,-0.2,nt,nt,nt
Cc1ccc2nc(Cl)c(C3CC(c4ccco4)=NN3C(=O)CCCC(=O)O)cc2c1 (configuration not stated),-4.0,0.0,2.7,1.1,nt,-1.7,-5.9,6.3,5.5,-0.7

# 3 entries out of the list above, sorted by the value under Beta2AR agonist, descending.
structure,Beta2AR agonist
O=C(NCC1CCCO1)C1CC1(c1ccccc1)c1ccccc1 (configuration not stated),2.0
CCCCC(=O)OCc1nc(N)nc(Nc2ccccc2C)n1,1.9
Cc1ccc2nc(Cl)c(C3CC(c4ccco4)=NN3C(=O)CCCC(=O)O)cc2c1 (configuration not stated),-4.0

# Screening data as filed in PubChem.

# Only part of the results is shown. The share of hits here may be higher or lower than overall.
